# Screening data (PubChem BioAssay)
# gsp antag – antagonizes gsp, the McCune-Albright syndrome mutation. hit rate 0.4% among 340,000. gsp-mutant cells, cAMP HTRF, 30 min; control for the full effect not named in the record. Potency, µM (highest dose often 76.9 µM), for inactives: top-dose activity change, negative = inhibition, hits mostly inhibitors; active = falling curve of any shape with a large fitted effect; inconclusive = falling curve, mostly with a smaller effect; inactive = flat or rising curve; cell line not stated here;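 note: intracellular cAMP measured with PDE inhibitor Ro 20-1724 present during compound exposure; potency is the fitted concentration of half-maximal effect; % is set by controls: 0 for no effect and ±100 for the full control effect; nearly all actives have a fitted effect of over 65% in size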
#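 Cells in G418 medium, seeded 16-24 h, 37C; buffer exchange to DPBS + 1 mM CaCl2, 0.5 mM MgCl2, 0.05% BSA; cpds in DMSO + […] (300 uM stock), 30 min 37C; HTRF cAMP detection.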
# TRPML1 inh – blocks the human TRPML1 channel; Q9GZU1; TRPML1-inducible cells, Ca2+ dye fluorescence, FDSS; stronger effect = lower value; inhibition of EC80 agonist-evoked calcium signal; activity change, negative = inhibition, % (no concentration beside the values); hit rate 0.02% among 390,000; in the data active means activity change below about -50%; inconclusive means about -30% to -50%; inactive means above about -30%;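 note: stimulus is agonist 54-4 at its EC80 concentration; % is set by controls: 0 for no effect and ±100 for the full control effect; compound concentration not given in the record; the text of the record puts the active cut at -80%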
# Target sequence (Q9GZU1 whole entry, looked up): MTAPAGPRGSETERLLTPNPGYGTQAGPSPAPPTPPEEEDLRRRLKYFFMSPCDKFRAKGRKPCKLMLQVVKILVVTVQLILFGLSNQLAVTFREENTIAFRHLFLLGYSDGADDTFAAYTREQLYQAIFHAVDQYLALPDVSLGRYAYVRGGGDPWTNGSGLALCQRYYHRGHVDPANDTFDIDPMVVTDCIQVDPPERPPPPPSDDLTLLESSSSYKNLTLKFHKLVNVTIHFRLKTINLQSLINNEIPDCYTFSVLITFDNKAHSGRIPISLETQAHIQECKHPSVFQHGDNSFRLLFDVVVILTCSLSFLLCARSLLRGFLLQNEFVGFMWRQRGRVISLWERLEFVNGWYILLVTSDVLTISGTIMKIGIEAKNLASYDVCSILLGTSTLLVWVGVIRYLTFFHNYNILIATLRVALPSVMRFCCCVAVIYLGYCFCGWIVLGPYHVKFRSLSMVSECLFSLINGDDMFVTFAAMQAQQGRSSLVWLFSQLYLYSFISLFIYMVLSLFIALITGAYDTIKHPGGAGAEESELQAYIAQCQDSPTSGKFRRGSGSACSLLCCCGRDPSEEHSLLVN
#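 Calcium fluorescence in TRPML1-DL cells induced overnight with Tet: a 110 s read after compound pin addition, then a 110 s antagonist read after challenge with 54-4 at 4 uM final (EC80).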
# Sfp PPTase inh – inhibitors of Bacillus subtilis Sfp phosphopantetheinyl transferase; Q9F4F7; Biochemical Sfp PPTase activity, qHTS; Potency, µM, without a hit: max response, negative = inhibition, usual class: inhibitors; hit rate 3.5% among 310,000; active = well fitted inhibition curve with a large enough effect; inconclusive = small, poorly fitted or top-dose-only effect, or another doubt; inactive = no such curve, though single readings can be large or run the other way;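 note: the enzyme is Sfp with the accession as filed and its product quenches rhodamine fluorescence; potency is the fitted concentration of half-maximal effect; 0% = enzyme reaction without inhibitor and -100% = no enzyme wells; top concentration of the series not given in the record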
#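 Reaction rates are the 30-min fluorescence difference (ex 525, em 598 nm) in wells containing 15 nM Sfp, 5 uM rhodamine-CoA and 12.5 uM BHQ-2-YbbR at pH 7.6 with 10 mM MgCl2.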
# ClpP mod – qHTS Assay for Activators of ClpP; purified B. subtilis ClpP, FRET peptide cleavage, 20 min; Potency, µM (highest dose often 57.5 µM), for inactives: at the highest dose activity change, negative = active; hit rate 1.9% among 340,000; active = well fitted falling curve with a large enough effect; inconclusive = small, poorly fitted or top-dose-only effect; inactive = no such curve, though single readings can be large or run the other way; note: potency is the fitted concentration of half-maximal effect; the source files actives as falling curves though it sought activators and does not explain the sign; nearly all actives have a fitted effect of over 65% in size; many hits overshoot -100%
# Target sequence (P80244 whole entry, looked up): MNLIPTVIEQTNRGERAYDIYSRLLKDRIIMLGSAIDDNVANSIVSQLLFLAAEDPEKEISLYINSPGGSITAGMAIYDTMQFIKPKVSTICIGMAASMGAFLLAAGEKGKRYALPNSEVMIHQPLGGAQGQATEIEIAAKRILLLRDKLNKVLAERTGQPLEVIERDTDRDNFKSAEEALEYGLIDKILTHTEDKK
#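 Purified B. subtilis ClpP, 10 microg/mL final in Tris/HCl pH8 with KCl, BSA, glycerol and Tween-20, cleaved an Abz/nitrotyrosine-quenched decapeptide. Fluorescence (ex 320, em 430) was read at 0 and 20 min at room temperature. Delta was normalized to 5.8 microM ADEP and DMSO/no-enzyme controls.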
# gsp ag – gsp mutant agonism | Potency, µM (doses to about 76.9 µM), for inactives: at the highest dose activation (cAMP increase), most hits filed as activators | AID 624287 | hit rate 0.13% among 340,000 | gsp mutant cells, cAMP HTRF, 30 min; control for the full effect not named in the record; active = well fitted activation curve with a large enough effect; inconclusive = small, poorly fitted or top-dose-only effect, or another doubt; inactive = no such curve, though single readings can be large or run the other way; cell line not stated here;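 note: phosphodiesterase inhibitor Ro 20-1724 added with compounds to block cAMP breakdown; potency is the fitted concentration of half-maximal effect; nearly all actives have a fitted effect of over 60% in size; about a fifth of the inactives were tested at one dose only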
#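 Cells in DMEM/10% FBS with G418 were pretreated with compounds in DMSO plus […] (300 uM stock) for 30 min at 37C. cAMP was measured by HTRF (cAMP-d2 plus anti-cAMP antibody-K) after 30 min at room temperature.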
# Menin-MLL FL inh – displaces fluorescein MLL peptide from human menin; FP activity change, % at 61.4 µM; 290,000 tested, under 10 active; Fluorescence polarization, fluorescein-MLL peptide displacement from menin; inconclusive = falling polarisation curve, or a change in total fluorescence; inactive = total fluorescence flat and polarisation flat or rising; no compound was filed as active; the % refers to the polarisation; negative = inhibition;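 note: % of control where 0% means no effect; inhibitors lower the polarisation; unlabelled MLL peptide was the positive control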
# TRPV1 potentiator – human TRPV1 potentiation. potentiation, % at 8.33 µM. Q8NER1. hit rate 0.02% among 320,000. AID 540277. TRPV1-expressing cells, Fluo-8 calcium influx, capsaicin EC20 potentiation; host cell line not named in the record; control for the full effect not named in the record; active means potentiation above 80%; inconclusive means 30% to 80%; inactive means below 30%; note: 0% is about no effect
#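 Cells expressing TRPV1 were dye-loaded with Fluo-8 and read kinetically: 10 s baseline, 3 min after compound (agonist portion), then 2 min after EC20 capsaicin (allosteric enhancer portion). Calcium-bound dye fluorescence at 480/520 nm.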
# An asterisk follows results filed as active; ? = inconclusive; nt = not tested or not shown; & = joins results of further samples; [ ] = remark or other dose.
SMILES,gsp antag,TRPML1 inh,Sfp PPTase inh,ClpP mod,gsp ag,Menin-MLL FL inh,TRPV1 potentiator
CCOc1cc(/C=N/NC(=O)C(=O)N2CCCC2)ccc1O,-11%,6,20%,nt,16%[15.4 µM],1.1,-2
CCCOC(=O)Nc1cccc(C(C)=O)c1,10%,-2,5%,-15%,17%,7.4,1
COc1ccc(CC(=O)Nc2cc(C)ccn2)cc1OC,19%,-3,nt,-5.1%,-15%[15.4 µM],nt,nt
COc1cc(OC)cc(C(=O)O/N=C(\N)c2ccncc2)c1,5%,27,-1%,2.9%,-2%,2.7,-4
COc1ccc(/C=C2\Sc3ccc(C(=O)NCC4CCCO4)cc3N(C)C2=O)cc1 (centres undefined),1%,30,50µM*,-4.1%,24%,4.3,-5
CC(C)C(OC(=O)c1nsc(Cl)c1Cl)C(=O)NCc1ccccc1 (centres undefined),-1%,-18,20%,nt,-16%,-4.8,0
CCCc1ncc(C(O)(c2ccccc2)c2ccccc2)n1C,3%,1,3%,nt,-47%[inhibitor],1.6,-13
COC(=O)CSc1nnc(-c2ccc(S(=O)(=O)NCc3ccccc3Cl)cc2)o1,-12%,7,12%,-26%,42%,-0.5,-3
CC(=O)OCCN(CCOC(C)=O)c1c(C)[nH]c(=O)[nH]c1=O,-1%,5,29%,1.6%,-2%,0.3,-7
CCOC(=O)c1cnn(-c2nc(-c3ccccc3)nc3c2COC(C)(C)C3)c1N,11%,12,8%,1.4%,1%,2.0,0
CCOC(=O)N1CCC(NC(=O)c2cc(C(=O)Nc3ccc(OCC)cc3)ccc2CO)CC1,-2%,5,11%,23%,-26%,1.0,-3
CCC(C)(C)C1CCC(=NNC(=S)Nc2ccccc2)CC1 (centres undefined),0%,14,4%,-1.0%,0%[15.4 µM],-4.6,8
CN1CCCC(OC(=O)c2ccc(C(C)(C)C)cc2)C1 (centres undefined),12%,9,3%,0.1%,-3%[15.4 µM],-2.8,14
COc1cccc(-c2[nH]nc3c2C(c2ccoc2)C(C#N)=C(N)O3)c1 (centres undefined),-9%,-7,-17%,0.8%,-12%,?,-8
Cc1cc(Nc2ccc([N+](=O)[O-])cc2)nc2ccccc12,?,6,20%,nt,6%[15.4 µM],0.4,-10
O=C(O)c1ccc(NC(=S)NC(=O)c2ccc(-c3ccc(Br)cc3)o2)cc1,-7%,6,45µM*,-6.2%,-9%[15.4 µM],24,-1
COc1ccc2c(c1)c(C(=O)N/N=C/c1ccc(OC)c(OC)c1)c(C)n2C,6%,21,11%,1.4%,-69%[inhibitor],1.1,21
CCOC(=O)C1CCN(C(=O)c2ccc3c(=O)n4nc(Nc5ccccc5OC)sc4nc3c2)CC1,nt,18,nt,-2.0%,-19%,nt,nt
COc1ccc(-n2ncc3c(NCc4ccco4)ncnc32)cc1,-4%,5,-2%,?,-5%,0.4,7
N#CCSc1nc2ccc(N3CCCCC3)cc2c(=O)n1Cc1ccccc1,-3%,10,16%,-14%,-23%,-1.9,3
O=C(N/N=C/c1cccc(O)c1)c1ccc(COc2ccccc2Br)cc1,-6%,-7,-24%,-2.4%,-31%[inhibitor],-4.7,-3
COc1cccc(/C=N/NC(=O)CNC(=O)COc2ccccc2)c1O,1%,5,16%,-15%,23%,11,-5
O=C(CSCc1c(Cl)cccc1Cl)NN=C1CCCC1,-10%,21,18%,nt,19%[15.4 µM],-1.1,25
Cc1ccccc1P(=O)(c1ccccc1)c1ccccc1C,nt,7,nt,2.0%,-23%,nt,nt
COc1ccc(OCCSc2nc(C)nc3ccccc23)cc1,-14%,65,?,nt,-21%,1.7,-9
CC(=O)c1ccc(OCCCC(=O)Nc2cc(Cl)ccc2-n2cncn2)cc1,-4%,-11,-8%,-0.9%,?,4.4,0
COc1ccc(-n2nc(C(=O)NCC(=O)N3CCOCC3)c3ccccc3c2=O)cc1OC,-23%,4,33%[activator],nt,-15%,5.4,11
Cc1cc(NC(=O)c2c(F)cccc2F)n(-c2nc3ccccc3[nH]2)n1,1%,-2,-13%,-11%,-52%[inhibitor],1.4,-6
CC(NC(=O)C1CCC(CNc2c(N3CCCCC3)c(=O)c2=O)CC1)c1ccccc1 (centres undefined),-2%,-2,-7%,nt,-7%[15.4 µM],0.4,-7
Cc1ccnc(NS(=O)(=O)c2ccc3ccccc3c2)n1,2%,28,23%,0.1%,5%[15.4 µM],-5.1,4
O=C(Nc1cccc(C(F)(F)F)c1)c1cccnc1N1CCN(CCO)CC1,0%,-12,15%,-0.6%,-9%,-2.8,19
COc1ccccc1CNC(=O)COC(=O)Cc1ccc(Cl)cc1,4%,11,8%,0.9%,?,7.2,12
O=S(=O)(Nc1ccc2c(c1)OCCO2)c1c(F)cccc1F,2%,3,-4%,nt,-3%,1.5,4
Cc1ccc(S(=O)(=O)N2CCCC2C(=O)NCCc2nc3ccccc3[nH]2)cc1 (centres undefined),8%,9,4%,-3.7%,14%,2.2,-12
COc1cc2c(cc1OC)CN(C(=O)CCNS(=O)(=O)c1ccccc1F)CC2,-10%,-5,18%,-18%,12%[15.4 µM],nt,5
Cc1ccc2oc(-c3cccc(NC(=S)NC(=O)c4cccs4)c3)nc2c1,-16%,1,-2%,5.1%,-9%,-0.7,2
O=C(c1ccc(S(=O)(=O)N2CCOCC2)cc1)N1CCN(S(=O)(=O)c2ccc(Cl)s2)CC1,-8%,2,1%,0.8%,-41%[inhibitor],-0.4,14
CCCCOC(=O)Cn1c(=N)n(CCN(CC)CC)c2ccccc21,7%,-4,9%,-3.5%,-41%[inhibitor],2.5,5
Cc1ccc(C(=O)N2N=C(c3ccc(NS(C)(=O)=O)cc3)CC2c2cccs2)cc1 (centres undefined),?,-23,4%,-12%,7%,0.6,1
COc1ccccc1/C=C/C(=O)NCC(=O)N/N=C(/C)c1ccc(Cl)cc1,6%,-1,3%,4.3%,-30%,-0.4,7
OCC1(Cc2ccccc2)CCN(CCCC2CCCC2)CC1,-3%,-6,7%,0.8%,?,-7.3,17
C=CCn1c(SCCCc2ccccc2)nc2c1c(=O)[nH]c(=O)n2C,7%,-2,-16%,0.2%,-5%,5.4,-8
COc1ccc(N2CCN(C(=O)CC(C)S(=O)(=O)c3ccc4c(c3)NC(=O)CO4)CC2)cc1 (centres undefined),?,-13,-2%,-0.6%,22%,nt,24
COc1ccc(CCNC(=O)c2ccc(CNS(=O)(=O)c3cccc(Cl)c3)cc2)cc1OC,-11%,-9,-19%,-0.3%,-14%,1.5,-2
CCCCc1nc2cc(C(=O)N3CCNC(=O)C3)ccc2o1,12%,15,27%,-1.3%,-24%,-0.7,8
CCOCCSc1n[nH]c(=O)n1CCc1ccccc1,13%,10,6%,-1.0%,?,-5.5,?
CCOC(=O)[C@@H]1[C@H]2COc3ccccc3[C@@H]2N2C(=O)N(c3ccc(Cl)cc3)C(=O)[C@@]12C,-6%,5,8%,-0.5%,nt,-3.3,21
COCCNC(=O)c1ccc(CS(=O)(=O)c2c(Cl)cccc2Cl)o1,11%,29,12%,-2.6%,-82%[inhibitor],-0.6,-1
O=C(NC(c1ccccc1)c1c(O)ccc2ccccc12)c1ccccc1Cl (centres undefined),-21%,-15,13%,-7.4%,-6%,3.2,4
NC(=O)Cn1nnc(-c2ccccc2NC(=O)c2cnccn2)n1,3%,0,-7%,-3.5%,-29%,2.1,1
CCOC(=O)C1=C(COC(=O)Cc2ccc(Br)cc2)NC(=O)NC1C (centres undefined),3%,4,5%,-0.3%,-57%[inhibitor],nt,4
C=CCOc1cccc(C2C(C(=O)c3ccc(C)o3)=C(O)C(=O)N2c2nccs2)c1 (centres undefined),11%,9,?,-0.5%,?,?,-7
C/C(CC(=O)Nc1ccc2ccccc2c1)=N\NC(=O)c1ccc(O)c(O)c1,-7%,11,11%,nt,-8%[15.4 µM],6.0,4
CCOC(=O)CSc1nc2cccnc2n1-c1ccc(F)cc1,10%,-3,25%,-1.7%,18%,3.0,5
O=C(C(Sc1ccccc1)c1ccc(Br)cc1)N1CCOCC1 (centres undefined),-8%,11,6%,2.8%,-2%,3.3,-9
N#Cc1ccccc1OCC(=O)Nc1ccc(N2CCOCC2)cc1N1CCOCC1,-15%,1,nt,-1.4%,5%,nt,-14
CC[C@H](C)[C@@H]1NC(=O)c2cc([N+](=O)[O-])cc(I)c2SC[C@@H](C(N)=O)NC(=O)[C@H](CCCCN)NC1=O,9%,-4,?,0.1%,-60%[inhibitor],-5.6,8
Cc1cccc(NS(=O)(=O)c2ccc(C)c(C(=O)NCC(c3cccs3)N3CCOCC3)c2)c1 (centres undefined),-17%,11,nt,0.6%,-3%,nt,nt
Cc1ccc(NC(=S)NC2CCCCC2)cc1S(=O)(=O)N(C)C,-11%,18,-45%,nt,17%,-13,2
CCn1c(C)cc(=S)c2ccccc21,2%,22,?,-3.4%,?,-1.2,6

# (next part)
SMILES,gsp antag,TRPML1 inh,Sfp PPTase inh,ClpP mod,gsp ag,Menin-MLL FL inh,TRPV1 potentiator
O=C1OC2(CCCCC2)OC(=O)C1=CNc1ccc2c(c1)OCO2,1%,13,1%,52%,-27%,-3.2,7
CC(C)CCN1C(=O)c2ccc(C(=O)Nc3ccc(O)cc3C(=O)O)cc2C1=O,-7%,39,2%,-0.9%,-1%,-0.9,11
CCC(C)N(C(=O)c1csnn1)C(C(=O)NC1CCCC1)c1ccc(F)cc1 (centres undefined),nt,-15,10%,nt,-1%[15.4 µM],2.3,-6
Oc1c(CN2CCN(c3ccc(F)cc3)CC2)cc(Cl)c2cccnc12,-14%,22,12%,1.0%,6%,0.7,?
COc1cccc(NC(=O)COC(=O)CCOc2ccccc2OC)c1,6%,-4,6%,1.2%,-2%[15.4 µM],4.2,24
O=C(Nc1cccc(NC(=O)c2ccccc2F)c1)c1ccccc1,-15%,-14&8,14%,0.2%&1.2%,-17%,-2.0,-5
